Source: PubChem BioAssay (several laboratories)
CBX7 AlphaScr – CBX7 chromodomain binding inhibitors, primary screen, biochemical, AlphaScreen; AlphaScreen His6-CBX7 / biotin-H3K27me3 peptide binding; stronger effect = lower value; normalised signal (fraction of DMSO) (test concentration not listed); 66,000 compounds, 1.1% hits; AID 1224903, 2016; in the data active means normalised signal below about 0.5;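 further: 100 nL library stock added to about 20 µL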
Target sequence (O95931 whole entry, looked up): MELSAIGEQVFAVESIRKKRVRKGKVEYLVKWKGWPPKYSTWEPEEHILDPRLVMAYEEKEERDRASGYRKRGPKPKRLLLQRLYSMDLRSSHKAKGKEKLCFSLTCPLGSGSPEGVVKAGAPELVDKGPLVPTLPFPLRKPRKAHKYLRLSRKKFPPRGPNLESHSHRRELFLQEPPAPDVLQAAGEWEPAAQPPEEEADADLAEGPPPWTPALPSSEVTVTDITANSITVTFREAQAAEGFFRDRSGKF
CBX7 AlphaScr z-score – second read-out of CBX7 AlphaScr, no call of its own (marks repeat the call); z-score; measured here: z-score of CBX7 signal; some inactives read as strong as hits; reference of the scale not given here;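 same signal on another scale; lower means less binding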
An asterisk follows results filed as active. The list is partial; count on the stated rates, not on these rows.

canonical_smiles	CBX7 AlphaScr	CBX7 AlphaScr z-score
O=S(=O)(c1ccc(Cl)cc1)c1nc(-c2ccco2)oc1N1CCCCC1	0.727	-0.627
CCOC(=O)c1c(NC(=O)CSc2nccn2C)sc2c1CCC2	0.902	-1.55
Cc1nc2cc(N3C(=O)c4ccncc4C3=O)ccc2s1	1.01	0.0271
CCc1ccc(-n2c(CCC(=O)O)ccc2-c2cccs2)cc1	0.803	-3.42
CCOc1ccccc1OCCCCCc1c(C)n[nH]c1C	0.842	-2.27
CC(=O)Nc1cccc(-c2nc3cc(Cl)cc(Cl)c3o2)c1	0.878	-1.46
COc1nccnc1NS(=O)(=O)c1ccc(NC(=O)c2ccc(C)cc2)cc1	0.915	-0.976
Cn1nc(CC(=O)Nc2ccccc2Br)c2ccccc2c1=O	0.902	-1.41
Cc1cc(-c2nc3cc(NC(=O)C(C)C)ccc3o2)ccc1Br	1.08	1.09
Nc1nonc1-n1nnc(-c2ccccc2)c1C(=O)c1ccccc1	0.979	-0.211
Cc1noc(C(=O)N2CC3(C)CC2CC(C)(C)C3)c1Cl (stereo not drawn)	1.05	1.67
O=C(C1CCC(=O)N1C1CCCC1)N1CCN(c2ccccc2)CC1 (stereo not drawn)	0.999	-0.0544
Cc1ccc(-c2ccc(OCC(=O)NCCc3nc4ccccc4[nH]3)cc2)cc1	1.26	1.84
CCCN1Cc2cccc(C(=O)Nc3ccc(C)cc3)c2C1=O	1.06	0.0604
Cc1ccc(C(=O)N2CC(=O)Nc3ccc(Br)cc3C2c2ccccc2)cc1C (stereo not drawn)	0.861	-3.53
Nc1nonc1-c1noc(COc2c(F)c(F)cc(F)c2F)n1	1.02	0.585
COc1cc(OC)c(NC(=O)C(NS(=O)(=O)c2ccc3nc(C)sc3c2)C(C)C)cc1Cl (stereo not drawn)	1.07	1.26
Cc1nc2cc(-c3ccccc3)nn2c(C)c1CCC(=O)Nc1ccc2c(c1)OCO2	0.959	-1.24
CCn1c(=N)n(CC(O)COc2ccccc2C)c2ccccc21 (stereo not drawn)	1.03	0.922
Cc1ccc(S(=O)(=O)N(C)Cc2nc(-c3ccc(Cl)cc3)no2)cc1	0.956	-0.57
COc1ccc(-c2csc(NC(=O)COc3ccc(Cl)cc3)n2)cc1OC	0.956	-0.821
COc1cccc(-c2nc(S(=O)(=O)c3ccc(Cl)cc3)c(N3CCCCC3)o2)c1	0.7	-4.61
Cc1ccc(NC(=O)Cn2c(-c3nonc3N)nc3ccccc32)cc1Cl	1.02	0.561
O=C(CCN1C(=O)COc2ccccc21)NCCN1CCc2ccccc2C1	1.01	0.388
CCN(CC)CCNC(=O)CNC(=O)c1nn(-c2ccc(OC)c(OC)c2)c(=O)c2ccccc12	1.04	0.861

Three entries already listed, ordered by molecular weight, falling:
canonical_smiles	CBX7 AlphaScr	CBX7 AlphaScr z-score
Cc1ccc(C(=O)N2CC(=O)Nc3ccc(Br)cc3C2c2ccccc2)cc1C (stereo not drawn)	0.861	-3.53
O=S(=O)(c1ccc(Cl)cc1)c1nc(-c2ccco2)oc1N1CCCCC1	0.727	-0.627
O=C(CCN1C(=O)COc2ccccc21)NCCN1CCc2ccccc2C1	1.01	0.388

The main list resumes, starting 2 compounds before the break.
canonical_smiles	CBX7 AlphaScr	CBX7 AlphaScr z-score
O=C(CCN1C(=O)COc2ccccc21)NCCN1CCc2ccccc2C1	1.01	0.388
CCN(CC)CCNC(=O)CNC(=O)c1nn(-c2ccc(OC)c(OC)c2)c(=O)c2ccccc12	1.04	0.861
Cc1ccc(-c2nn(CCC(=O)NC(C)C)c(=O)c3ccccc23)cc1	1.02	0.509
COCCNC(=O)C1CCN(C(=O)c2cc3sccc3n2Cc2ccc(Cl)cc2)CC1	1.02	0.84
O=S(=O)(NC1CCCCC1Oc1ccccc1)c1ccc(Cl)cc1 (stereo not drawn)	1.03	0.958
COc1cc(NC(=O)CCc2c(C)nc3cc(-c4ccc(Cl)cc4)nn3c2C)cc(OC)c1	1.12	2.39
O=C(Nc1ccc2oc(-c3cccnc3)nc2c1)c1cccnc1Cl	1.01	0.286
Cc1ccc(CCNC(=O)C2CC(=O)N(c3ccc(F)c(Cl)c3)C2)cc1 (stereo not drawn)	1.03	1.39
Cc1ccc(NC(=O)C2CCCN(S(=O)(=O)c3cccc4cccnc34)C2)cc1 (stereo not drawn)	1.02	0.601
COCCNC(=O)c1ccc2c(c1)ncn2-c1cccc(F)c1	0.821	-2.14
CNC(=O)CN1C(=O)COc2ccc(S(=O)(=O)N3CCCCCC3)cc21	1.05	1.39
c1ccc(-c2nnc(-c3ccc4ccccc4n3)o2)cc1	1.14	2.2
O=S(=O)(c1ccccc1)c1nc(COc2ccc(Cl)cc2Cl)oc1N1CCOCC1	0.806	-0.842
COc1cccc(-n2nc(C(=O)Nc3ccc(Oc4ccccc4)cc3)c3ccccc3c2=O)c1	0.929	-0.978
COc1ccccc1-c1nc(S(=O)(=O)c2ccc(Cl)cc2)c(N2CCCCCC2)o1	0.96	-1.21
COc1ccc(-c2ncnn2-c2ccc(Cl)cc2)cc1	1.03	0.463
Cc1ccc(NC(=O)c2c(-c3ccccc3Cl)noc2C)c(C)c1	0.965	-0.154
Cc1c(C(=O)NC2CCCc3ccccc32)oc2ccc(S(=O)(=O)N3CCCCC3)cc12 (stereo not drawn)	1.12	0.131
O=C(c1cc2ccccn2n1)N1CCCCC1	1.24	1.74
CC(=O)Nc1ccccc1-c1nc2ccc(C(=O)N(CC(C)C)CC(C)C)cc2[nH]c1=O	1.02	0.324
Cc1c(C(=O)NCCN2CCOCC2)sc2ncn(CC(=O)N3CCCCC3C)c(=O)c12 (stereo not drawn)	1.03	0.936
Cc1ccc(-n2c(CCC(=O)O)ccc2-c2ccc(F)cc2)cc1	1.01	0.424
NC(=O)c1nn(-c2ccccc2)nc1NC(=O)COc1ccccc1Cl	1.07	1.97
COc1ccc(Cn2c(=O)[nH]c3cc(C(=O)NCc4ccc5c(c4)OCO5)ccc3c2=O)cc1	1.07	1.84
Cc1cccc(-n2c(CCC(=O)O)ccc2-c2cccs2)c1	1.03	0.904
COc1ccc(CNC(=O)c2ccc(NC3=NC4CS(=O)(=O)CC4S3)cc2)cc1 (stereo not drawn)	1.2	1.52
Cc1nc2c(C(=O)NCCCN3CCOCC3)c[nH]n2c(=O)c1Cc1ccc(F)cc1Cl	1	0.000324
Cc1ccccc1-c1nnn(Cc2ccc(Cl)cc2)n1	1.16	3.7
CC(=O)Nc1ccc(NC(=O)c2c(-c3ccccc3)noc2C)cc1	1.02	0.616
O=S(=O)(c1ccc(-c2csc(-c3cccnc3)n2)cc1)N1CCCC1	1.07	0.868
O=C(CCC1CCCCC1)Nc1ccc(S(=O)(=O)Nc2cnc3ccccc3n2)cc1	1.11	1.2
Cc1ccn2c(NC(=O)c3ccc(Cl)cc3)c(-c3ccc(F)cc3)nc2c1	0.98	-0.645
O=C(CN1C(=O)c2ccccc2Sc2ccc(C(=O)N3CCCC3)cc21)Nc1ccccc1Cl	1.01	0.308
Cc1cccc(N2CCN(C(=O)C3CCN(C(=O)c4cc5sccc5n4C)CC3)CC2C)c1 (stereo not drawn)	1.04	0.678
CCCN1CCN(CCCNC(=O)c2ccc3c(c2)NC(=O)c2ccccc2S3)CC1	1.3	2.16
COc1ccc(-c2noc(CC3CCCCC3)n2)cc1OC	1.02	0.343
COc1ccc(Nc2nc(-c3ccccc3Cl)nc3ccccc23)cc1OC	1.07	1.8
CCOc1ccc(Nc2cc(C(=O)NCCc3ccc(Cl)cc3)c3ccccc3n2)cc1	0.854	-2.27
CCN(CC)CC(=O)Nc1c2c(nc3c1CCC3)CCC2	1.02	0.303
Cc1cccc(NC(=O)CCCN2C(=O)c3cccnc3C2=O)c1	1.01	0.0104
COc1ccc(NC(=O)c2cnc3sccn3c2=O)cc1OC	0.922	-0.93
Cc1ccc(S(=O)(=O)Nc2cccc3ccc(C)nc23)cc1	1.37	7.9
Cc1cccc(-c2nc(C(=O)NC(C)CCc3ccccc3)c(C)o2)c1 (stereo not drawn)	0.89	-0.879
CCn1c(SCC(=O)Nc2ccccc2Cl)nnc1-c1cccnc1	1.02	0.582
Cc1ccc(C)c(OCCCCc2c(C)n[nH]c2C)c1	0.948	-2.66
O=C(Nc1ccc(OC(F)(F)F)cc1)C1CCN(S(=O)(=O)c2cccnc2)CC1	1.04	1.24
CCCCCC1CCc2nc(-c3ccc(F)cc3)ccc2C1 (stereo not drawn)	1.41	12.2
CCCCN(CC)Cc1c(C)[nH]c2ccccc2c1=O	1.05	0.292
O=c1[nH]c2ccccc2n1Cc1ccc(Cl)cc1	1.02	0.448
Cc1nc2c(C(=O)NC3CCCCC3)cnn2c(C)c1Cc1ccccc1	0.931	-0.643
Cc1ccc(-n2nc(C)c3c(C)c(CCC(=O)NCCCc4ccccc4)c(C)nc32)cc1	1.09	0.675
Cn1c(=O)c2c(ncn2CC(=O)Nc2cccc(Cl)c2)n(C)c1=O	0.888	-0.441

Not a retest: entries from further up.
canonical_smiles	CBX7 AlphaScr	CBX7 AlphaScr z-score
O=C(CCC1CCCCC1)Nc1ccc(S(=O)(=O)Nc2cnc3ccccc3n2)cc1	1.11	1.2
Cc1ccn2c(NC(=O)c3ccc(Cl)cc3)c(-c3ccc(F)cc3)nc2c1	0.98	-0.645
O=C(CN1C(=O)c2ccccc2Sc2ccc(C(=O)N3CCCC3)cc21)Nc1ccccc1Cl	1.01	0.308
Cc1cccc(N2CCN(C(=O)C3CCN(C(=O)c4cc5sccc5n4C)CC3)CC2C)c1 (stereo not drawn)	1.04	0.678
CCCN1CCN(CCCNC(=O)c2ccc3c(c2)NC(=O)c2ccccc2S3)CC1	1.3	2.16

The list continues.
smiles | CBX7 AlphaScr | CBX7 AlphaScr z-score
CN(Cc1ccccc1)C(=O)c1ccc2c(c1)N(Cc1ccccc1F)C(=O)c1ccccc1S2(=O)=O | 0.934 | -1.68
CCN(CC)CCNc1ccnc2c1ccc1nsnc12 | 1 | 0.103
COc1ccccc1NC(=O)COc1nsnc1N1CCOCC1 | 1.06 | 0.552
CCCCCOc1ccc(NC(=O)C(=O)NCCOC)cc1 | 1.06 | 0.076
CCCSc1oc(-c2ccc(C)cc2)nc1S(=O)(=O)c1ccc(F)cc1 | 0.996 | -0.0328
CCOC(=O)c1nnn(-c2ccc(Br)cc2)c1C | 0.837 | -1.94
Cc1cc2ccccc2c(=O)n1CC(=O)NCC(=O)N1CCC(C)CC1 | 1.07 | 0.687
CCN(CC)CCCNC(=O)c1cc2c(s1)-c1c(C)cccc1OC2 | 1.11 | 3.9
N#Cc1cnc(Nc2nc3ccccc3o2)nc1-c1ccccc1 | 0.668 | -6.55
O=C(Nc1c(-c2ccccc2)nc2ccccn12)c1ccc(Cl)cc1Cl | 0.955 | -1.07
CN(Cc1ccccc1)C(=O)c1cc(-c2ccccc2O)on1 | 0.956 | -1.47
O=C1CN(C(=O)CCc2ccccc2)C(c2ccc(F)cc2)c2cc(Cl)ccc2N1 (stereo not drawn) | 0.732 | -2.56
COc1ccc(C(=O)NC(C)C(c2cccs2)N2CCN(c3ccccc3F)CC2)cc1OC (stereo not drawn) | 0.876 | -1.31
Cc1ccc(-c2nn(CCC(=O)Nc3ccccc3)c(=O)c3ccccc23)cc1 | 1.01 | 0.26
CC1CCN(c2nnc(NC(=O)c3cc(-c4ccc(Br)cc4)on3)s2)CC1 | 0.72 | -1.11
Cc1ccc(Oc2nnc(-c3cccs3)c3ccccc23)cc1C | 0.909 | -0.103
O=S(=O)(c1ccccc1)c1nc(-c2ccc(F)cc2)oc1NCc1ccccc1 | 0.897 | -2.71
O=C(Cn1nc(Cc2cccnc2)c2ccccc2c1=O)NCc1cccc(Cl)c1 | 0.999 | -0.0017
COc1ccccc1CN1CCN(Cc2ccccc2C(F)(F)F)CC1 | 0.984 | -0.389
CCN(CC)C(=O)COc1ccc(-c2nnc(Nc3ccc(OC)c(C(=O)NC)c3)c3ccccc23)cc1 | 1.02 | 0.0925
CCOC(=O)c1c(NC(=O)c2cccc(Cl)c2)sc2c1CCCC2 | 1.16 | 2.42
Cc1onc(-c2ccccc2Cl)c1C(=O)NC(CC(C)C)C(=O)O (stereo not drawn) | 1.12 | 0.139
O=C(CSc1nnc(-c2ccccc2Cl)o1)N1CCOCC1 | 1.06 | 2.79
O=c1nc(/C=C/c2ccc(-c3ccc(F)c(Cl)c3)o2)cc(C(F)(F)F)[nH]1 | 1.16 | 2.41
O=C(NCCN1CCOCC1)c1cc(-c2ccncc2)nc2ccccc12 | 1.02 | 0.277
CCc1cc2c(C)cc(=O)oc2c(CN2CCCCCC2)c1O | 0.964 | -0.704
O=C(c1cccc(NC2=NC3CS(=O)(=O)CC3S2)c1)N1CCC(N2CCCCC2)CC1 (stereo not drawn) | 0.829 | -1.86
CCCCC(=O)Nc1cccc(-c2nc3ncccc3o2)c1 | 1.2 | 1.8
COc1ccc(-c2cc3nc(C)c(CCC(=O)Nc4ccc5c(c4)OCCO5)c(C)n3n2)c(OC)c1 | 0.929 | -0.916
Cc1oc(-c2cccs2)nc1CSCC(=O)O | 1.05 | 2.3
CCN(CC)C(=O)c1ccc2c(c1)N(Cc1ccc(Cl)cc1)C(=O)c1ccccc1S2(=O)=O | 0.967 | -0.784
O=C(NCCc1ccccc1)c1ccc2c(c1)N(Cc1ccccc1)C(=O)c1ccccc1S2=O (stereo not drawn) | 0.944 | -1.45
CCOc1cc2c(cc1OC)C(c1cc3c(cc1Br)OCO3)NCC2 (stereo not drawn) | 0.854 | -0.685
CC1CCCC(NC(=O)c2ccc3c(c2)N(Cc2ccc(F)cc2Cl)C(=O)CS3)C1C (stereo not drawn) | 1.15 | 2.27
CC(NC(=O)c1cnn2c(C(F)F)cc(-c3ccccc3)nc12)c1ccccc1 (stereo not drawn) | 0.972 | -0.802
O=C(Cn1nc(Cc2cccnc2)c2ccccc2c1=O)NC1CCCc2ccccc21 (stereo not drawn) | 0.91 | -0.119
CCOc1ccc2nc(N3CCCC(C(=O)NCc4ccccc4)C3)sc2c1 (stereo not drawn) | 1.12 | 3.2
